# Ecoli growth: blocks Escherichia coli growth; 330,000 compounds, 0.21% hits; OD600 absorbance (test concentration not listed); OD600, 23 h; stronger effect = lower value;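 active = OD600 absorbance below the run mean of sample wells minus 3.6 SD, in any replicate, cut at about 0.56 in these data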;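 also: stock transfer was 300 nL into about 60 µL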
# UCH37 DUB inh: blocks the human deubiquitinase UCH37; Q9Y5K5; purified proteasome/UCH37, Ub-AMC cleavage fluorescence; inhibition, % (concentration not given with the values); 330,000 compounds, 0.33% hits; AID 588478;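 active = mean of two replicates above 20%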;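 also: 0% = compound-free wells with enzyme and 100% = wells lacking proteasome; stock transfer was 100 nL into about 20 µL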
# Target sequence (Q9Y5K5 whole entry, looked up): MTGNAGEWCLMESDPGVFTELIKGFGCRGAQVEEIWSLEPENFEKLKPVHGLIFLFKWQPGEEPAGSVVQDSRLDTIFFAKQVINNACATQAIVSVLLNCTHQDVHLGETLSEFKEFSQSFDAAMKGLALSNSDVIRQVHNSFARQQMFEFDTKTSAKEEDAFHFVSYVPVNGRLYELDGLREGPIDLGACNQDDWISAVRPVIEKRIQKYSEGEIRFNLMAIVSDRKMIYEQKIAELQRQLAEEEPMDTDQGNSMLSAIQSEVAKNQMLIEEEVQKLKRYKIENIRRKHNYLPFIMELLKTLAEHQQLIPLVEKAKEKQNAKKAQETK
#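 System: Proteasome-associated human UCH37 deubiquitinase; Input: 0.15 nM proteasome in added enzyme buffer; Also added: Ub-AMC substrate from 1 µM stock; Incubation: 30 min compound-proteasome preincubation then 25 min substrate reaction, room temperature; Detection: fluorescence, ex 355 nm, em 460 nm; Read-out: % inhibition of Ub-AMC cleavage fluorescence; Benchmarks: no-proteasome and no-compound wells.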
# The depositor's hits bear a star.
# Fields: Ecoli growth, UCH37 DUB inh
- CN(C)S(=O)(=O)c1cccc(NC(=S)NN=CC2CC=CCC2)c1 (stereo not given)
→ 0.65, 2.8
- Cc1cc(C(=O)NN=Cc2cc([N+](=O)[O-])ccc2O)c2ccccc2n1
→ 0.68, 9.1
- Cc1cccc(C=NNC(=O)c2ccc(Cl)cc2)c1O
→ 0.62, 1.3
- CCOc1cc(C=NNc2nc(Nc3ccccc3)nc(N3CCOCC3)n2)ccc1OC(=O)c1ccco1
→ 0.7, 3.3
- CC1=C(C)C(=NOC(=O)c2cccc([N+](=O)[O-])c2)C=CC1=O
→ 0.68, 2.5
- O=C(CSc1nnc(SCc2ccccc2)s1)NN=C/C=C/c1ccco1
→ 0.66, 5.2
- COc1ccc(C=NNC(=O)CCSc2nc3ccccc3s2)cc1OC
→ 0.71, 2.0
- CCOc1ccc(-n2c(C)cc(C=NNc3nc(C)cc(=O)[nH]3)c2C)cc1
→ 0.65, -6.3
- CN(C)C(=NS(=O)(=O)c1ccccc1)c1ccc(F)cc1
→ 0.69, 3.3
- CC(=NNC(=O)Cc1cc(=O)[nH][nH]1)c1cccc([N+](=O)[O-])c1
→ 0.74, -1.7
- CCOc1cccc(C=NNC(=S)Nc2cc(S(=O)(=O)N3CCOCC3)ccc2N2CCOCC2)c1O
→ 0.7, 0.8
- COc1ccc(-c2nn(-c3ccccc3)cc2C=NNC(N)=S)cc1OC
→ 0.67, 2.3
- COc1cc(C=NNC(=S)NC(C)C)ccc1OCC(=O)Nc1c(C)cc(C)cc1C
→ 0.65, -15
- COC(=O)c1ccc(N2Cc3ccccc3C2=NC(=O)Nc2ccccc2)cc1
→ 0.72, -13
- O=C1N/C(=N/N=Cc2ccc(O)cc2)SC1Cc1ccccc1 (stereo not given)
→ 0.68, 4.1
- CC(C)(C)C(=O)C=c1[nH]c(=O)c(=Cc2ccccc2F)s1
→ 0.72, 3.1
- CNC(=S)NN=Cc1ccccc1OCC(=O)O
→ 0.64, 7.4
- COc1cc(C(=O)NN=c2sc3ccccc3n2C)cc(OC)c1OC
→ 0.62, 1.6
- O=C(COc1ccccc1)NCC(=O)NN=Cc1ccc(O)cc1O
→ 0.69, -8.6
- Cc1nc2ccccc2n1C(=NS(=O)(=O)c1ccccc1)c1ccccc1
→ 0.69, 1.9
- O=C(CC=NOCc1ccc(F)cc1Cl)c1cnc(-c2ccccc2)s1
→ 0.72, 0.1
- COc1ccc(CCNC(=O)CC(=O)NN=Cc2ccc(C(=O)O)cc2)cc1OC
→ 0.66, 4.0
- Cc1c(C=NNc2nc3ccccc3[nH]2)c2ccccc2n1C
→ 0.58, 0.1
- O=C(NN=Cc1ccncc1)c1ccccc1OCc1ccc(Br)cc1
→ 0.71, 0.3
- CC(C)C(NC(=O)c1ccccc1)C(=O)NN=Cc1ccco1 (stereo not given)
→ 0.69, 2.7
- COC(=O)NN=Cc1cc(Cl)cc(Cl)c1OCc1ccccc1
→ 0.7, 2.9
- Cc1ccc(OCC(=O)NN=Cc2cn[nH]c2-c2ccc(Cl)c(Cl)c2)cc1
→ 0.76, -1.0
- O=C(C[n+]1cccc(C=NO)c1)N1CCCc2ccccc21
→ 0.69, 1.0
- O=C(NN=Cc1cccnc1)C(=O)N1CCCCCC1
→ 0.7, 3.8
- CN(C)c1ccc(/C=C(\NC(=O)c2ccccc2)C(=O)NN=Cc2ccc(C(=O)O)cc2)cc1
→ 0.67, 20

# Complete entries, quoted from the list. Order of screens: Ecoli growth | UCH37 DUB inh
# CCOc1cccc(C=NNC(=S)Nc2cc(S(=O)(=O)N3CCOCC3)ccc2N2CCOCC2)c1O across the screens: 0.7 | 0.8
# CNC(=S)NN=Cc1ccccc1OCC(=O)O across the screens: 0.64 | 7.4
# CCOc1cc(C=NNc2nc(Nc3ccccc3)nc(N3CCOCC3)n2)ccc1OC(=O)c1ccco1 across the screens: 0.7 | 3.3

# Of the compounds above, these contain an aryl thioether with sulfur outside any ring.
# Fields: Ecoli growth, UCH37 DUB inh
- O=C(CSc1nnc(SCc2ccccc2)s1)NN=C/C=C/c1ccco1
→ 0.66, 5.2
- COc1ccc(C=NNC(=O)CCSc2nc3ccccc3s2)cc1OC
→ 0.71, 2.0

# (more compounds)
# Fields: Ecoli growth, UCH37 DUB inh
- CC(=NNC(=O)c1nnn(-c2nonc2N)c1C(C)C)c1ccncc1
→ 0.68, 0.9
- O=C(CC(=O)NN=Cc1ccccc1)NCc1ccccc1
→ 0.69, 3.6
- Cc1ccc(C(=O)Nc2ccc(C(=O)NN=Cc3ccccn3)cc2)cc1
→ 0.65, 6.2
- O=C(C(=NO)n1cncn1)c1ccccc1Cl
→ 0.61, 3.8
- CCOC(=O)c1c(C)c2c(n1C)CCCC2=NO
→ 0.74, 1.2
- CCCCCC(=O)NN=Cc1cccs1
→ 0.72, 4.2
- COc1ccc(NN=C(C#N)C(=N)N2CCCCC2)cc1
→ 0.63, 11
- CC(=NNc1nnc(C)c(=O)[nH]1)C(=O)O
→ 0.72, 3.2
- CCNC(=S)NN=Cc1cccc(OCc2c(F)cccc2Cl)c1
→ 0.75, 5.7
- CON=CCC(=O)c1cnc(-c2ccccc2)s1
→ 0.68, 3.1
- Cc1ccc(C(=O)NN=Cc2ccc3c(c2)OCO3)cn1
→ 0.68, 7.6
- COc1ccccc1/C=C\C(=O)NCC(=O)NN=C(C)c1cccc([N+](=O)[O-])c1
→ 0.65, 2.4
- COc1ccc(COC(=O)NN=Cc2cccs2)cc1
→ 0.64, 3.7
- Cc1noc(-c2ccc(Cl)cc2)c1C(=O)ON=C(N)c1ccc(C(C)(C)C)cc1
→ 0.65, 1.1
- O=c1c2ccccc2nc(-c2ccccc2)n1N=Cc1ccc([N+](=O)[O-])cc1
→ 0.7, -0.4
- CC(CC(=O)NC1CCCCC1)=NNC(=O)c1ccccc1C
→ 0.71, -0.5
- CCNC(=O)CC(C)=NNC(=O)C12CC3CC(CC(C3)C1)C2
→ 0.66, 1.7
- COc1ccc(C=NNC(=O)c2cccnc2)cc1
→ 0.67, 6.0
- Cc1ccccc1CC1S/C(=N/N=Cc2ccco2)NC1=O (stereo not given)
→ 0.72, 7.1
- CSc1ccc(C=NNC(=O)CN2CCN(Cc3ccccc3Cl)CC2)cc1
→ 0.71, -9.2
- CCOC(=O)C(C(=O)OCC)C(C)(C)C(C)=NNc1ccc([N+](=O)[O-])cc1[N+](=O)[O-]
→ 0.72, 3.2
- C=CCn1c(CNc2ccccc2)nnc1SCC(=O)NN=Cc1ccc(O)cc1O
→ 0.74, 3.6
- O=S(=O)(N=CN1CCOCC1)c1ccc(Cl)cc1
→ 0.71, 0.4
- COc1ccc(C=NNC(=O)CNC(=O)c2cccs2)cc1
→ 0.65, 6.3
- Cc1ccc(N(CC(=O)NN=Cc2ccc(OC3CSC3)cc2)S(=O)(=O)c2ccccc2)cc1
→ 0.71, 1.6
- CC(=NNC(=O)c1cccs1)c1cccc(NC(=O)C2CC2)c1
→ 0.72, -4.0
- CC1(C)CC(=O)C2=C(C1)OC(N=CN1CCCC1)=C(C#N)C2c1ccccc1 (stereo not given)
→ 0.71, 2.6
- NC(=NOC(=O)Cc1ccc(-c2ccccc2)cc1)c1cccc([N+](=O)[O-])c1
→ 0.67, 2.0
- Cn1cccc1CC(=O)NN=Cc1cccc2ccccc12
→ 0.71, 1.5
- Cc1ccc(-c2cc(C(=O)NN=Cc3ccoc3)c3ccccc3n2)cc1
→ 0.73, -3.3

# Filtered by structure, the compounds so far with an aryl methoxy group.
# Fields: Ecoli growth, UCH37 DUB inh
- COc1ccc(C=NNC(=O)CCSc2nc3ccccc3s2)cc1OC
→ 0.71, 2.0
- COc1ccc(-c2nn(-c3ccccc3)cc2C=NNC(N)=S)cc1OC
→ 0.67, 2.3
- COc1cc(C=NNC(=S)NC(C)C)ccc1OCC(=O)Nc1c(C)cc(C)cc1C
→ 0.65, -15
- COc1cc(C(=O)NN=c2sc3ccccc3n2C)cc(OC)c1OC
→ 0.62, 1.6
- COc1ccc(CCNC(=O)CC(=O)NN=Cc2ccc(C(=O)O)cc2)cc1OC
→ 0.66, 4.0
- COc1ccc(NN=C(C#N)C(=N)N2CCCCC2)cc1
→ 0.63, 11
- COc1ccccc1/C=C\C(=O)NCC(=O)NN=C(C)c1cccc([N+](=O)[O-])c1
→ 0.65, 2.4
- COc1ccc(COC(=O)NN=Cc2cccs2)cc1
→ 0.64, 3.7
- COc1ccc(C=NNC(=O)c2cccnc2)cc1
→ 0.67, 6.0
- COc1ccc(C=NNC(=O)CNC(=O)c2cccs2)cc1
→ 0.65, 6.3

# (listing goes on)
# Fields: Ecoli growth, UCH37 DUB inh
- N#Cc1c(N=C/C=C/c2ccccc2)sc2c1CCCC2
→ 0.69, 6.0
- O=C(CSc1nc2ccccc2c(=O)n1-c1ccccc1)NN=C/C=C/c1ccccc1[N+](=O)[O-]
→ 0.68, 5.9
- CN(C)c1cccc(C(=O)NN=Cc2ccsc2)c1
→ 0.63, 4.6
- Clc1ccc(C=NNC(=Nc2ccccc2)c2ccccn2)c(Cl)c1
→ 0.76, -2.4
- C(=NNc1ccc(-n2ccnc2)nn1)c1ccccc1
→ 0.74, 0.7
- Cc1ccc(C(=O)ON=Cc2ccc(N3CCOCC3)c([N+](=O)[O-])c2)cc1
→ 0.71, 2.6
- CCN=c1scc(C)n1N=Cc1cc(Br)c(O)c(Br)c1
→ 0.65, -7.0
- O=C(NN=Cc1cn[nH]c1-c1ccc(Cl)cc1)c1ccc([N+](=O)[O-])cc1
→ 0.66, 2.7
- COC(=O)c1ccc(C=NNC(=O)c2ccc(C)cc2Cl)cc1
→ 0.68, 2.2
- Brc1ccc(N=CC=CC=CNc2ccc(Br)cc2)cc1
→ 0.7, 2.1
- O=C(O)c1ccc(NN=Cc2cccc(F)c2)cc1
→ 0.68, 17

# This is a subset; rates above refer to the full screens.
